Sa growth inh = inhibitors of Staphylococcus aureus growth at 42 °C; relative growth, % (no concentration beside the values); S. aureus RN4220 growth, OD600, 20 h; active compounds read low; 0.53% of 170,000 active; AID 720641;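 active means growth at 42 °C up to 50% and 20 or more points under that at 30 °C, or under 10% at both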;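 further: 300 nL library stock went into each well; scaled to the means of positive and negative controls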
GIV Gai3 FP = inhibitors of GIV GBA-motif binding to rat Galpha-i3. 0.42% of 210,000 active. AID 1224905. Galpha-i3/FITC-GIV peptide fluorescence polarization, 90 min; active compounds read low; scaled: aluminum fluoride 0%, vehicle 100%. percent of control (FP), % (no concentration beside the values). P08753;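 active means replicate mean at 85% of control or lower, very high polarization wells dropped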;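 further: wells of about 15 µL received 100 nL stock; the first replicate is given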
Target sequence (P08753 whole entry, looked up): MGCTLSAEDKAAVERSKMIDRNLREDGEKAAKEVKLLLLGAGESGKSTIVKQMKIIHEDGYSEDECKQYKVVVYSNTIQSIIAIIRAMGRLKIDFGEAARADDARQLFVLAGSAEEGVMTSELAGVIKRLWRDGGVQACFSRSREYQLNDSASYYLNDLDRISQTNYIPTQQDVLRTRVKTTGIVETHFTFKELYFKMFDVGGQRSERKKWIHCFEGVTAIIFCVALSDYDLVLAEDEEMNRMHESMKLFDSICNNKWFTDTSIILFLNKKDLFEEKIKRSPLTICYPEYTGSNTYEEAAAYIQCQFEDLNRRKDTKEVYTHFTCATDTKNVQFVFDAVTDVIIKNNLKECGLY
HCMV UL50-53 inh = disrupts HCMV UL50-UL53 complex binding. HTRF UL50-UL53 interaction, normalized percent inhibition. inhibition, % (concentration not given with the values). 0.15% of 190,000 active. AID 1918969;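 active means both replicates at 50% or more, plus weaker picks with an unusually low signal ratio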;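 further: stock transfer was 100 nL into about 20 µL; 0% = negative control wells and 100% = wells with untagged competitor protein; inactives centre near -12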
Sa growth inh second temp = recorded beside Sa growth inh, whose call it bears; relative growth, %; measured here: growth at 30 °C;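 optical density after 20 h as mean of two plates; 100% = untreated growth and lower means inhibition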
Active calls of the source: *; . = no result given; & = joins results of further samples.

SMILES	Sa growth inh	Sa growth inh second temp	GIV Gai3 FP	HCMV UL50-53 inh
O=C(Nc1ccc(Cl)c(C(F)(F)F)c1)C1CCN(S(=O)(=O)c2cccc3nonc23)CC1	101	94	105	-25
CCc1nc2nc(C)c(NS(=O)(=O)c3ccc(C(C)(C)C)cc3)c(=O)n2[nH]1	102	89	107	-4
CC(C)(C)Nc1nc(Cl)nc(Oc2ccc(=O)n(-c3ccccc3)n2)n1	87	94	101	-36
CC1(C(=O)NC2CCCC2)COc2c(oc3ccccc23)C(=O)N1Cc1ccccc1 (stereo not given)	.	.	111	-3
COCCn1c(Sc2ncnc3sccc23)nc2ccccc21	96	84	.	-15
Cc1cc2nc(-c3ccc(SCC#N)nc3)[nH]c2cc1C	105	61	108	-4
O=c1ccc(C(F)(F)F)cn1Cc1cc2c(cc1Br)OCO2	87	90	.	-27
CC(C)NC(=O)COc1ccc(S(=O)(=O)N2CCCC2)cc1	109	103	98	9
Cc1ccc(C(=O)OCC(=O)Nc2ccc(Cl)c(Cl)c2)s1	81	93	.	7
O=C(CC1Sc2ccc(C(F)(F)F)cc2NC1=O)Nc1ccc(Cl)c(C(F)(F)F)c1 (stereo not given)	106	90	104	3
Cn1c(=O)n(C)c2cc(Oc3ccccc3)c(NS(=O)(=O)c3cc(F)ccc3F)cc21	.	.	103	-24
CC(=O)N(C)Cc1nc2ccccc2n1C	89	102	101	4
Cc1cccc(C)c1NC(=O)CS(=O)(=O)c1nc(-c2ccc(Cl)cc2)cn1-c1ccccc1	102	90	102	-10
COc1cccc(CNC(=O)Cn2c(=O)oc3cc(S(=O)(=O)N4CCC(C)CC4)ccc32)c1	108	79	103	9
O=C(COC(=O)Cc1cn2ccsc2n1)Nc1ccc(Br)cc1	97	95	.	-12
CC(=O)c1ccc(N2CCN(c3ccc(NC(=O)c4ccc(F)cc4)cc3C(=O)O)CC2)cc1	98	88	96	.
CCCCN1CCc2nc(N3CCN(c4ncccn4)CC3)ncc2C1	97	89	102	.
N#CCNC(=O)c1ccc(Br)cc1	87	87	.	-13
COc1ccc(C(=O)N(Cc2nc3nc(C)cc(C)n3n2)c2ccc(C)cc2)cc1	.	.	100	-29
CCSc1nsc(NC(=O)c2cccc(Cl)c2)n1	.	.	101	-6
CC(=O)NCC(c1ccco1)N1CCN(c2ccccc2)CC1 (stereo not given)	110	103	100	11
Cc1cc(Nc2cccc(O)c2)c2cccc(Br)c2n1	88	84	110	-20
COCCNC(=O)c1nn(C)c2c1CCc1sccc1-2	.	.	100	2
Cc1cc(=O)n(Cc2cccc(Cl)c2)c2c1c(C)nn2-c1ccccc1	75	91	95	.
O=C(O)CC1(CC(=O)Nc2cccnc2)CCCC1	86	86	102	.

Among those listed so far, 7 have a Cl atom.
SMILES	Sa growth inh	Sa growth inh second temp	GIV Gai3 FP	HCMV UL50-53 inh
O=C(Nc1ccc(Cl)c(C(F)(F)F)c1)C1CCN(S(=O)(=O)c2cccc3nonc23)CC1	101	94	105	-25
CC(C)(C)Nc1nc(Cl)nc(Oc2ccc(=O)n(-c3ccccc3)n2)n1	87	94	101	-36
Cc1ccc(C(=O)OCC(=O)Nc2ccc(Cl)c(Cl)c2)s1	81	93	.	7
O=C(CC1Sc2ccc(C(F)(F)F)cc2NC1=O)Nc1ccc(Cl)c(C(F)(F)F)c1 (stereo not given)	106	90	104	3
Cc1cccc(C)c1NC(=O)CS(=O)(=O)c1nc(-c2ccc(Cl)cc2)cn1-c1ccccc1	102	90	102	-10
CCSc1nsc(NC(=O)c2cccc(Cl)c2)n1	.	.	101	-6
Cc1cc(=O)n(Cc2cccc(Cl)c2)c2c1c(C)nn2-c1ccccc1	75	91	95	.

New compounds follow
SMILES	Sa growth inh	Sa growth inh second temp	GIV Gai3 FP	HCMV UL50-53 inh
CC(=O)n1c(=O)oc2cc(Cl)ccc21	87	108	95	0
COc1ccc(C2=C(C)C(N3CCC(C(=O)NCc4ccccn4)CC3)=NS2(=O)=O)cc1	.	.	102	-42
Cc1ccccc1NC(=O)N1CCC(C(N)=O)CC1	103	96	107	-6
O=c1[nH]c(SCc2cccc(Cl)c2)nc2nc[nH]c12	.	.	106	5
COCCn1c(O)c(/C=N/c2c(C#N)c(C)c(C)n2C2CCCCC2)c(=O)[nH]c1=S	92	98	.	-21
O=C(O)c1ccc2c(c1)N(Cc1ccc(F)cc1)C(=O)/C(=C\c1ccccc1)S2	111	32	104	.
ClCc1cnn(-c2ccccc2)c1-n1cccc1	90	87	100	-22
Nc1cccc(Nc2ncnc3ccccc23)c1	93	90	103	.
Cc1ccc(NC(=O)CSc2nnc3[nH]c(=O)cc(C)n23)cc1Cl	107	91	96	.
O=C(OCc1ccccc1Cl)c1ccc(-c2nnn(Cc3ccc(F)cc3)n2)cc1	101	104	102	20
O=C1CSC2(C(=O)Nc3ccccc32)N1c1ccccc1 (stereo not given)	98	109	112	-11
COc1ccccc1C(=O)Nc1ccc(-c2nc3ccccc3o2)cc1	72	82	99	-6
COc1ccc(/C=C(\C#N)c2nc(-c3cc4cc(Br)ccc4oc3=O)cs2)cc1	.	.	105	-10
COC(=O)c1ccccc1NC(=O)/C=N/O	103	101	100	6
CCCCSc1nnc(-c2ccc3[nH]c(C)c(C)c3c2)o1	103	90	106	5
O=C(COC(=O)C1CCN(S(=O)(=O)c2ccc3c(c2)OCCO3)CC1)c1c[nH]c2ccccc12	91	98	.	-15
CC(=O)Nc1ccc2c(COC(=O)c3ccc(S(=O)(=O)N(C)C)cc3)cc(=O)oc2c1	106	92	.	-33
COc1ccc(CCNC(=O)c2c(O)nc3cc(C)ccn3c2=O)cc1OC	94	91	98	-13
CC(C)n1c(=O)c(=O)[nH]c2cc(-c3noc(Cc4ccc(Cl)cc4)n3)ccc21	.	.	104	16
COc1ccccc1N1CCN(C(c2ccccc2)c2nnc(-c3ccccc3Cl)o2)CC1 (stereo not given)	97	94	102	.
Nn1cc(-c2ccccc2)nn1	153	82	.	-46
Cc1cc(C)c(NC(=O)CCNC2CCCCC2)c(C)c1	94	95	.	-2
CCCn1c(=O)c2ccccc2n2c(SCC(=O)NC(C)(C)C)nnc12	76	92	.	-14
COc1ccc(CNc2nccs2)cc1OC	60	72	112	1
COc1ccc(Nc2ncc3c(n2)CC(C)CC3=O)cc1 (stereo not given)	.	.	102	4
More results.
SMILES	Sa growth inh	Sa growth inh second temp	GIV Gai3 FP	HCMV UL50-53 inh
C=C(C)Cn1c(SCC(=O)c2ccccc2)nc2sc3c(c2c1=O)CCCC3	98	90	107	23
CC(=O)Oc1ccc(C)cc1NC(=O)CC1SC(=Nc2ccc(F)cc2)N(C)C1=O (stereo not given)	95	93	106	9
CCc1ccccc1NC(=O)Cn1cc2c(n1)CCCC2	88	87	101	-16
COc1ccc(CNC2C3CC4CC(C3)CC2C4)c(OC)c1C (stereo not given)	89	75	100	.
O=C(Nc1ccc(Cl)cc1)c1cc(-c2ccncc2)n[nH]1	.	.	101	-10
CN(C)CCn1c(N)c(-c2nc3ccccc3n2C)c2nc(C#N)c(C#N)nc21	113	80	108	-33
Cc1noc2c1C(c1cccc(F)c1)C1=C(CC(c3ccc(O)cc3)CC1=O)N2 (stereo not given)	.	.	106	-24
O=C(CSc1ccc(C(F)(F)F)cn1)Nc1ccccc1	82	73	97	8
O=C(O)c1cccc(S(=O)(=O)NC2CC2)c1	79	90	.	-30
O=S(=O)(Nc1ccccn1)c1ccc2[nH]c3c(c2c1)CCCCC3	.	.	106	2
CCCN1C2=NCCCN2c2ccccc21	105	93	100	.
C=CCNS(=O)(=O)c1cc2c3c(c1)CCN3C(=O)CC2	102	91	97	-11
O=C(CN1C(=O)S/C(=C\C=C\c2ccccc2)C1=O)N1CCOCC1	90	91	.	-29
CC(C)C(NC(=O)C1CCC(C(C)(C)C)CC1)C(=O)NCCc1ccc(S(N)(=O)=O)cc1 (stereo not given)	.	.	103	-23
Cc1cc(C(=O)CSc2nnc(CN3CCCC3)o2)c(C)n1-c1ccccc1	88	88	.	-13
CSc1ncc(C(=O)Nc2c(C)cccc2C)c(-c2ccccc2)n1	134	104	97	.
Cc1ccnc(NS(=O)(=O)c2ccc(N)cc2)n1	74	71	.	-44&-17&-21
CCc1ccc(-n2c(=O)c3cccnc3n2CC(=O)Nc2ccc(C)cc2C)cc1	.	.	108	-5
CN(C)C(=O)c1ccc2c(c1)N(CC(=O)NC1CCCCC1)C(=O)CS2	.	.	134	-18
O=C(Cc1ncc(-c2ccccc2)cn1)c1ccccc1	119	128	98	-6
O=C(C1c2ccccc2C(=O)N2CCc3ccccc3C12)N1CCN(c2ccccc2)CC1 (stereo not given)	103	89	95	-22
COc1ccc(OCC(=O)N2c3ccc(F)cc3CCC2C)cc1 (stereo not given)	101	100	96	-18
CCOC(=O)c1cc(CC)sc1/N=C/c1c(C)[nH]n(-c2ccc(C)cc2)c1=O	.	.	96	-27
C=Cn1cccc1C(=O)O	117	90	105	-15
Cc1ccc2snc(C(=O)N3CCN(C(=O)c4cc5cc(Cl)ccc5[nH]4)CC3)c2c1	.	.	107	-35

Copied from the list.
`N#CCNC(=O)c1ccc(Br)cc1` in Sa growth inh second temp: 87
`CC(=O)c1ccc(N2CCN(c3ccc(NC(=O)c4ccc(F)cc4)cc3C(=O)O)CC2)cc1` in Sa growth inh: 98
`O=C(O)c1cccc(S(=O)(=O)NC2CC2)c1` in Sa growth inh: 79

4 of the entries above in order of their number in Sa growth inh, smallest number first.
smiles	Sa growth inh	Sa growth inh second temp	GIV Gai3 FP
COc1ccc(CNC2C3CC4CC(C3)CC2C4)c(OC)c1C (stereo not given)	89	75	100
COc1ccc(OCC(=O)N2c3ccc(F)cc3CCC2C)cc1 (stereo not given)	101	100	96
CN(C)CCn1c(N)c(-c2nc3ccccc3n2C)c2nc(C#N)c(C#N)nc21	113	80	108
C=Cn1cccc1C(=O)O	117	90	105

2 entries drawn at random from those above:
SMILES	Sa growth inh	Sa growth inh second temp	GIV Gai3 FP	HCMV UL50-53 inh
CC(=O)Oc1ccc(C)cc1NC(=O)CC1SC(=Nc2ccc(F)cc2)N(C)C1=O (stereo not given)	95	93	106	9
Cc1cc(C(=O)CSc2nnc(CN3CCCC3)o2)c(C)n1-c1ccccc1	88	88	.	-13

Later entries:
SMILES	Sa growth inh	Sa growth inh second temp	GIV Gai3 FP	HCMV UL50-53 inh
CN(CC(=O)Nc1ccc(N2CCOCC2)cc1)CC(=O)Nc1cccc(Br)c1	129	106	.	-6
Nc1nc(N)c2nccnc2n1	110	102	94	-28
COc1ccc(Cl)cc1NC(=O)c1c(NCc2ccc(C)o2)sc2c1CCCC2	76	95	134	.
CCOC(=O)/C(C#N)=C/NC1CCN(Cc2ccccc2)CC1	97	86	108	-16
COc1cc(NC(=O)CCc2c(C)nn3cnnc3c2C)cc(OC)c1	.	.	100	-17
COc1ccc(Sc2ccccc2C(=O)O)cc1	108	97	103	-2
Cc1cccc(NC(=O)c2oc3ccccc3c2NC(=O)c2cc(=O)c3ccc(C)cc3o2)c1	101	92	102	-10
COCCn1c(-c2ccccc2)n[nH]c1=S	93	64	102	16
Cc1cc(C)nc(N2CCN(c3cc(C)nc4c(-c5ccc(F)cc5)cnn34)CC2)n1	.	.	103	13
O=C(O)CCN(Cc1ccccc1)S(=O)(=O)c1ccccc1Cl	152	73	.	3
CC(=O)Oc1cccc(NC(=O)CC2SC(N)=NC2=O)c1 (stereo not given)	104	67	105	-10
C=CCn1c(=O)c2c(C)c(C)sc2n2c(Nc3ccccc3)nnc12	93	88	106	-26
CCN(CC)c1nc(C)nc2c1sc(=S)n2-c1ccccc1	97	90	98	0
CCc1nn(CC(=O)NC(C)CC)c(=O)c2cc3occc3n12 (stereo not given)	92	95	102	0
COc1ccc2ncc3c(c2c1)-c1cc(Cl)ccc1OC3	102	95	106	-23
CCOC(=O)Cc1nnc(Nc2ccc(OC)cc2)c2ccccc12	.	.	99	-47
O=C(COC(=O)C12CC3CC(CC(C3)C1)C2)NCc1ccco1	108	90	.	-13
CCc1noc(-c2ccc(NC(=O)C3CC(=O)N(c4ccccc4C)C3)cc2)n1 (stereo not given)	.	.	109	0
CN1CCC(N(C)C(=O)c2ccccc2Nc2ccc(SC(F)F)cc2)CC1	97	88	.	-37
CN1CCN(C2=Nc3cc(F)ccc3Cc3ccccc32)CC1	82&93	80&86	98	-33&-35
COC(=O)c1ccc(C2C(C#N)=C(N)Oc3n[nH]c(-c4cc(OC)c(OC)c(OC)c4)c32)cc1 (stereo not given)	.	.	100	-28
CCOc1ccc(CNC(=O)c2cccc(Nc3nc4ccccc4n4nnnc34)c2)cc1OC	106	95	107	-4
O=C1NC(=O)/C(=C/c2ccc(-c3ccc(F)cc3O)o2)S1	.	.	130	-24&-30&-30&-10
O=C(O)CCN1CCSC1=O	80	90	.	-23
COc1ccc(-c2oc3ccc(OC)cc3c2C(=O)Nc2ccc(OC)cc2OC)cc1	.	.	100	2
Cc1ccc(Cn2c(CCNC(=O)c3cccc(C)c3)nc3ccccc32)cc1	98	87	101	-21
O=C(COC(=O)c1cc(F)c(F)cc1Cl)NC1CC1	118	88	.	-8

From PubChem
